VDR inhibitor – inhibitors of human vitamin D receptor; Potency, µM, for inactives: max response, negative = inhibition, actives largely listed as inhibitors; VDR-SRC2-3 peptide fluorescence polarization, 2 h; P11473; 400,000 compounds, 0.93% hits; active means well fitted inhibition curve with a large enough effect; inconclusive means small, poorly fitted or top-dose-only effect, or another doubt; inactive means no such curve, though single readings can be large or run the other way; further: series mostly up to about 120 µM
Target sequence (P11473 whole entry, looked up): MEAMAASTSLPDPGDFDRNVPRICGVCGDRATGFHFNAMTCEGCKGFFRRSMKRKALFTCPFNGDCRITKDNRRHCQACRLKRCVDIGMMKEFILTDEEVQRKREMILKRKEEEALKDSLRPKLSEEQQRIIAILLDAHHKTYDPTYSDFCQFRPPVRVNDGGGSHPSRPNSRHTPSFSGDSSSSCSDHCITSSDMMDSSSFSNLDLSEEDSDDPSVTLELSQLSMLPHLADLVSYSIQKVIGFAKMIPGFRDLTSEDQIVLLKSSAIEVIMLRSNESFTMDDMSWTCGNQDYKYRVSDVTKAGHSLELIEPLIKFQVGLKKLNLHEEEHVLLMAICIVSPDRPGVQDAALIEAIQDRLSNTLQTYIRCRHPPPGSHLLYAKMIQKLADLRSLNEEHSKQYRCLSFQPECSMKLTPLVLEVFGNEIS
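Signal is fluorescence polarization, reporting how far test compounds block the interaction of VDR with the SRC2-3 coregulator peptide after a 2 h room-temperature incubation.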
* = called active by the depositor; ? = inconclusive; & = joins results of further samples; [ ] = remark or other dose. On the % scale 0 is the no-effect control and ±100 the full control effect; potency means the concentration at half of the fitted maximal effect.

SMILES | VDR inhibitor
O=C1CC(c2ccc(O)c(O)c2)Oc2cc(O)cc(O)c21 (stereo not given) | 2%&-16%
COc1ccc(CNC(=O)CSCc2ccccc2Cl)cc1 | -12%
CC(=O)c1sc(Nc2ccccn2)nc1C | 6%
Cc1ccccc1CN1C2=NCCCN2c2ccccc21 | 2%
Cc1cnc(C(=O)NCC(=O)Nc2ccccc2Br)cn1 | 5%
O=C(Cc1nnc(NC(=O)Nc2ccccc2)s1)Nc1ccccc1 | -9%
Cc1c(C(=O)Nc2cccc(C(F)(F)F)c2)sc2nc3n(c(=O)c12)CCCC3 | 14%
COc1ccc(S(=O)(=O)NCCCN2CCOCC2)cc1F | 3%
CC(=O)c1cccc(S(=O)(=O)NC(C)C2CC3CCC2C3)c1 (stereo not given) | -7%
Cc1nc2nc(C)c(NS(=O)(=O)c3ccc(Cl)s3)c(=O)n2[nH]1 | -14%
C=CCNc1nc(NCc2ccccc2)c(C#N)c2c1CN(C)CC2 | 9%
CC(C)=C(C#N)c1nc2ccccc2s1 | 8%
O=C(COC(=O)C1CCC(=O)N1)Nc1ccc(Oc2ccccc2)cc1 (stereo not given) | 1%
CC(SCC(=O)Nc1ccccc1)c1nc2ccccc2c(=O)[nH]1 (stereo not given) | 0%
CC(C)c1ccccc1NC(=O)COC(=O)c1ccc(Cl)c(S(=O)(=O)N2CCCCCC2)c1 | -9%
COc1ccccc1C(=O)Nc1ccccc1SCc1cc(=O)c2ccccc2[nH]1 | 9%
CC(=O)Nc1ccc(C)cc1 | -19%
CC(C)(C)C(=O)O/N=C(\N)c1ccc(-c2csnn2)cc1 | -7%
O=C(NC1CCS(=O)(=O)C1)c1cccc(S(=O)(=O)N2CCOCC2)c1 (stereo not given) | -6%
Nc1ccc(Br)cc1C(NCC(=O)O)c1ccccc1 (stereo not given) | 6%
CCOc1ccc(C(=O)C(c2ccccc2)N2CCOCC2)cc1 (stereo not given) | -13%
CN(C)S(=O)(=O)c1ccc(S(=O)(=O)NC2CCOC(C)(C)C2)cc1 (stereo not given) | 5%
Nc1ccc(Oc2ccc3nc(-c4ccccc4)c(-c4ccc([N+](=O)[O-])cc4)nc3c2)cc1 | 16%
CC1Nc2ncnc(N3CCN(c4ccccc4)CC3)c2N(Cc2ccc(Br)cc2)C1=O (stereo not given) | -3%

Among those listed so far, these contain a cyano group.
SMILES | VDR inhibitor
C=CCNc1nc(NCc2ccccc2)c(C#N)c2c1CN(C)CC2 | 9%
CC(C)=C(C#N)c1nc2ccccc2s1 | 8%

Copied from the listing for reference:
SMILES | VDR inhibitor
CCOc1ccc(C(=O)C(c2ccccc2)N2CCOCC2)cc1 (stereo not given) | -13%
CN(C)S(=O)(=O)c1ccc(S(=O)(=O)NC2CCOC(C)(C)C2)cc1 (stereo not given) | 5%

Next part:
SMILES | VDR inhibitor
COc1ccc2nc(SC)c(C#N)cc2c1 | 6%
CCOC(=O)N1CCc2c(sc3c2c(=O)n(-c2ccccc2)c(=O)n3CC(=O)Nc2ccc(OC)cc2OC)C1 | -5%
CCc1ccccc1NC(=O)CN(C)C(=O)CSc1nc2cc(Cl)ccc2s1 | -10%
COC(=O)C(CC(C)C)NC(=O)CNC(=O)c1ccccc1C (stereo not given) | 8%
O=C(NCC1CCN(Cc2ccccc2Cl)CC1)Nc1ccccc1F | -14%
CCN1C(=O)[C@H]2[C@@H](c3ccc(-c4ccc(Cl)c(Cl)c4)c(OC)c3)N[C@@](Cc3ccccc3)(C(=O)OC)[C@H]2C1=O | -6%
COc1ccc2c(c1)c(C(=O)N/N=C/c1cccc(O)c1)c(C)n2C | -11%
CN(C)CCCNC(=O)C[C@H]1C[C@H](C(=O)N2CCCCC2)[C@@]2(CCc3ccccc3)c3[nH]c4ccc(Cl)cc4c3CCN2C1=O | -6%
O=C1ON=C(c2ccccc2)/C1=C/c1cccnc1 | -7%
COc1ccc(Cl)cc1NC(=O)CN1CCC(n2nnc3ccccc32)CC1 | 6%
O=C(c1cc(-c2cccs2)nc2ccccc12)N1CCN(c2ccccc2O)CC1 | -5%
COc1cccc(N2CCN(C(c3ccccn3)c3nnnn3C(C)(C)C)CC2)c1 (stereo not given) | -8%
CCc1nc(SCc2ccccn2)[nH]c(=O)c1C | 12%
Cc1cc(C)cc(-n2ccnc(NCCc3ccccc3)c2=O)c1 | 8%
Cc1nn(C(C)(C)C)c(C)c1/C=N/OC(=O)Nc1ccc(Cl)cc1 | 10%
COc1cnn(-c2ccccc2)c(=O)c1SCc1ccc(Cl)cc1Cl | 24%
CCN(CC)C(=O)c1cccc(-c2ccc(OC)cc2)c1 | 6%
O=C(N/C(=C/c1ccco1)C(=O)N1CCCCCC1)c1cccs1 | 8%
CCN(c1ccccc1)S(=O)(=O)c1ccc(F)cc1C | 1%
COc1cccc(-c2cn3nc(C)c(C)nc3n2)c1 | 9%
CC(C)NC(=O)c1onc(CSc2ccncc2)c1C(=O)NC(C)C | -24%
O=S(=O)(c1ccc(Cl)cc1)N1CCN(c2nc(-c3cccc(Br)c3)nc3ccccc23)CC1 | 2%
C=CCNC(=O)/C=C/c1ccc(C(C)C)cc1 | -10%
COc1ccc(NC(=O)CSc2c(C)nn(-c3nnc(C)c(=O)[nH]3)c2C)cc1 | 11%
CC(=O)NCCC(=O)Nc1ncc(S(=O)(=O)c2ccc([N+](=O)[O-])cc2)s1 | -15%
CCOC(=O)CC1C(=O)NCCN1C(=O)c1cc2c(=O)n3cccc(C)c3nc2s1 (stereo not given) | 4%
CC1(C)CC(=O)/C(=C(\O)c2ccccc2)C(=NCCc2ccccc2)C1 | 15%
O=C(CS(=O)(=O)c1ccccc1)Nc1nnc(C(F)(F)F)s1 | 10%
Cc1cc(C(C)(C)C)ccc1OCCOCCN1CCCC1 | -5%
NC(=O)c1c(NC(=O)C(=O)N2CCOCC2)sc2c1CCCC2 | -10%
COc1ccc(NC(=O)/C=C/c2ccccc2[N+](=O)[O-])c(OC)c1 | -17%
Cc1ccccc1-c1noc(-c2ccc(N3CCCC3)c([N+](=O)[O-])c2)n1 | 15%
COc1cc(C)nc(N2CCCC(C(=O)Nc3cc(Cl)ccc3OC)C2)n1 (stereo not given) | 17%
NS(=O)(=O)c1ccc(CNC(=O)c2ccc3c(c2)OCO3)cc1 | -3%
CN(CC(=O)NCCCn1ccnc1)S(=O)(=O)c1ccc(Cl)cc1 | 4%
OC1CCCCC1 | 7%
Cc1c(Cl)ccc2c(C(=O)Nc3cc(C(C)(C)C)on3)cc(-c3ccccn3)nc12 | 6%
C=CCOc1c(Cl)cc(Cl)cc1S(=O)(=O)NCCO | 0%
Cc1ccc(S(=O)(=O)N2CCN(c3ccnc(-c4cccs4)n3)CC2)cc1 | 20%
COc1ccc(NC(=O)CN2CC(c3ccccc3)CC2=O)cc1OC (stereo not given) | -2%
COc1ccc(C2C(C(C)=O)=C(O)C(=O)N2c2ccc(C)cc2)cc1 (stereo not given) | 82%[activator]
COc1ccccc1N1CCN(CCCNc2c(C)c(=O)n(C)c(=O)n2C)CC1 | 14%&-28%
C=CCn1c(Sc2nncn2C)nc2c1c(=O)[nH]c(=O)n2C | -28%
O=C(CN1CSCC1=O)N1CCN(S(=O)(=O)c2cc(C(F)(F)F)ccc2Cl)CC1 | 1%
CS(=O)(=O)c1ccc2sc(NC(=O)c3cc4ccccc4o3)nc2c1 | 6%
Cc1ccccc1C1CC(c2ccccc2)Nc2ncnn21 (stereo not given) | -5%
COc1ccc(NC(=S)NNC(=O)C2CC2c2ccc(C)cc2)cc1 (stereo not given) | 11%
Fc1cccc(-c2n[nH]c(=S)n2-c2ccccc2)c1 | -4%
Cc1ccc(S(=O)(=O)N2CCCCC2)cc1NC(=O)COC(=O)Cc1cccc(C(F)(F)F)c1 | 0%
CC(C)CNC(=O)c1ccc(NC(=O)c2cccs2)cc1 | 4%
CC(C)C(CC(=O)N1CCCCC1)C1CCOC(C)(C)C1 (stereo not given) | 5%
NC(=O)C1CCN(C(=O)C2CCC(=O)N(CC3CCCCC3)C2)CC1 (stereo not given) | -3%
O=C(Nc1ccc(Br)cc1)C1OCCc2ccccc21 (stereo not given) | 2%
O=C(O)CCCC(=O)N1CCc2cc(S(=O)(=O)NCc3ccc(F)cc3)ccc21 | -10%
CC1CCc2c(sc3nnn(CC(=O)Nc4cccc(C(F)(F)F)c4)c(=O)c23)C1 (stereo not given) | -14%
O=C(OCC(=O)N(CCc1ccccc1)Cc1ccccc1)c1ccccc1NCCO | -9%
COc1cc(/C=N/Nc2nc3ccccc3s2)ccc1OC(=O)c1ccccc1F | 1%
O=C(Nc1ccc(C(=O)OCc2cc(=O)n3c4c(sc3n2)CCCC4)cc1)c1ccc(F)cc1 | 9%
COc1cccc(C(=O)COC(=O)c2n[nH]c(=O)c3ccccc23)c1 | -7%
CCn1cc(C(=O)Nc2cccc(C(=O)OC)c2)c(=O)c2ccc(C)nc21 | 8%
Additional structures.
SMILES | VDR inhibitor
COc1ccc(COCC(O)CN2CCc3ccccc3C2)cc1OC (stereo not given) | 3%
COc1ccc(C(C(=O)NCC2CCCO2)N(Cc2ccc(F)cc2)C(=O)CNC(=O)c2ccco2)cc1OC (stereo not given) | -17%
O=C(NC1CCCCCC1)C1CC(=O)N(c2ccc(Cl)cc2)C1 (stereo not given) | -15%
O=C(NCCN1CCOCC1)c1cc(S(=O)(=O)NCCCN2CCCC2=O)ccc1Cl | 1%
Cc1ccc(Cl)c2sc(NC(=O)c3ccc(S(=O)(=O)N4CCCC4)cc3)nc12 | 2%
CCCc1cc(C(=O)Nc2sc(C)c(C)c2C(=O)OCC)no1 | ?
CC(=O)Nc1ccc(/C(C)=N/NS(=O)(=O)c2ccccc2)cc1 | -22%
Cc1nn(-c2ccccc2)c(N)c1N=Nc1cccc(S(=O)(=O)N2CCOCC2)c1 | 8%
CN(C(=O)CSC1=Nc2ccccc2C2=NC(c3ccccc3)C(=O)N12)C1CCCCC1 (stereo not given) | -5%
Cc1ccc(/C(N)=N/OC(=O)COc2ccccc2Cl)cc1 | -25%
CN(C(=O)c1ccccc1OC1CCN(S(C)(=O)=O)CC1)C1CCOC1 (stereo not given) | 1%
CN1CCCN(C(=O)c2ccc(Br)s2)CC1 | 8%
Cc1onc(-c2ccccc2)c1C(=O)NC(=S)NNC(=O)c1ccncc1 | -22%
CC(Sc1nc(N)c2c3c(sc2n1)CSC(C)(C)C3)C(=O)Nc1ccccc1 (stereo not given) | 40µM*
COc1ccc(C(=O)C(O)C(c2ccc(C)cc2)N2CCOCC2)cc1OC (stereo not given) | -5%
O=C1CC(N2CCCc3ccccc32)C(=O)N1c1ccccc1Cl (stereo not given) | 11%
COc1cccc(C(=O)Nc2ccc(NC(=O)C3CC=CCC3C(=O)O)cc2)c1 (stereo not given) | -2%
COc1cccc(/C(C)=N/NS(=O)(=O)c2ccc(Cl)cc2)c1 | -16%
O=c1cc(N2CCCCC2)c(-c2ccccc2)n[nH]1 | 10%
N#Cc1ccc(-c2nc3ccccc3nc2-c2ccccc2)cc1C#N | 5%
COc1ccc(OC)c(/C=C/C(=O)N2CCN(S(=O)(=O)c3cc(C)ccc3C)CC2)c1 | -8%
Cc1cc(Cl)c(S(=O)(=O)Nc2ccc3c(c2)OCCO3)cc1OCC(=O)NC1CCCCC1 | -8%
CC1CCCCN1c1nnc(NC(=O)Cn2c(=O)oc3ccccc32)s1 (stereo not given) | -8%
COc1ccccc1C(=O)c1c(N)c(-c2nc(-c3ccccc3)cs2)c2ccccn12 | 0%

6 entries out of the list, ordered by molecular weight, highest first.
SMILES | VDR inhibitor
CC1CCc2c(sc3nnn(CC(=O)Nc4cccc(C(F)(F)F)c4)c(=O)c23)C1 (stereo not given) | -14%
COc1ccc(NC(=O)CSc2c(C)nn(-c3nnc(C)c(=O)[nH]3)c2C)cc1 | 11%
COc1cnn(-c2ccccc2)c(=O)c1SCc1ccc(Cl)cc1Cl | 24%
NC(=O)c1c(NC(=O)C(=O)N2CCOCC2)sc2c1CCCC2 | -10%
Cc1ccccc1C1CC(c2ccccc2)Nc2ncnn21 (stereo not given) | -5%
CCc1nc(SCc2ccccn2)[nH]c(=O)c1C | 12%

Laid out differently: results already given.
| molecule | VDR inhibitor |
| --- | --- |
| COc1cccc(C(=O)Nc2ccc(NC(=O)C3CC=CCC3C(=O)O)cc2)c1 (stereo not given) | -2% |
| COc1cccc(/C(C)=N/NS(=O)(=O)c2ccc(Cl)cc2)c1 | -16% |
| O=c1cc(N2CCCCC2)c(-c2ccccc2)n[nH]1 | 10% |
| N#Cc1ccc(-c2nc3ccccc3nc2-c2ccccc2)cc1C#N | 5% |
| COc1ccc(OC)c(/C=C/C(=O)N2CCN(S(=O)(=O)c3cc(C)ccc3C)CC2)c1 | -8% |

Other compounds follow:
SMILES | VDR inhibitor
O=C(COC(=O)c1ccccc1C(=O)c1ccccc1)NCCc1ccc(Cl)cc1Cl | 1%
C=CCOc1cccc(CNCCCN2CCOCC2)c1 | -8%
CCOc1ccccc1-c1nc(-c2cc3ccccc3nc2OC)no1 | 6%
Cc1cnc(C(=O)Nc2cccc(-c3nnc4n3CCCCC4)c2)cn1 | 9%
CC(=O)Nc1ccc(S(=O)(=O)N(C)CC(=O)NNc2c(F)c(F)cc(F)c2F)cc1 | -10%
Cc1cccc(-n2cc(-c3ccccc3)nc2SCC(=O)Nc2ccccc2Cl)c1 | 4%
COc1ccc(C(=O)Nc2ccc(C3(C#N)CCCC3)cc2)cc1 | -14%
O=C(CCN1C(=O)c2ccccc2S1(=O)=O)Nc1ccccc1O | -3%
O=C(COc1ccc(F)cc1Cl)Nc1cccc(S(=O)(=O)N2CCCCCC2)c1 | -11%

This is a subset; the hit share may differ from the screen's.
